GALR2 agonist: GALR2 (human) receptor agonism; GALR2-expressing cells, agonist activation read-out; activation, %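 (tested at 5 µM)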; 140,000 tested, 0.48% active; O43603;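 active = above mean plus 3 SD of all compounds, about 5% in these data, not always enough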;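 also: 0% = vehicle buffer wells and 100% = reference agonist at full effect; tested in CHO reporter cells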
RGS16-Gao: RGS16-Galphao interaction regulator (human). O15492+P09471. bead-based flow cytometry RGS16-Galphao binding, fluorescence; actives lie on both sides. binding response (% of control), % at 10 µM. 220,000 tested, 0.38% active;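 active = below 25% or above 175%, edge rows of some plates excepted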;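 also: Galphao activated by GDP with aluminum fluoride before binding; 100% = wells without compound and 0% = beads without RGS; some results beyond the cut were filed as inactive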
PKD1 inh: inhibitors of human PKD1 kinase. PKD1 kinase fluorescence polarization assay. inhibition, %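 (about 10 µM by stock and volumes)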. Q15139. 200,000 tested, 0.056% active;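 active = inhibition of 50% or more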;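 also: controls were vehicle for no effect and a reference inhibitor for full effect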
Target sequence (Q15139 whole entry, looked up): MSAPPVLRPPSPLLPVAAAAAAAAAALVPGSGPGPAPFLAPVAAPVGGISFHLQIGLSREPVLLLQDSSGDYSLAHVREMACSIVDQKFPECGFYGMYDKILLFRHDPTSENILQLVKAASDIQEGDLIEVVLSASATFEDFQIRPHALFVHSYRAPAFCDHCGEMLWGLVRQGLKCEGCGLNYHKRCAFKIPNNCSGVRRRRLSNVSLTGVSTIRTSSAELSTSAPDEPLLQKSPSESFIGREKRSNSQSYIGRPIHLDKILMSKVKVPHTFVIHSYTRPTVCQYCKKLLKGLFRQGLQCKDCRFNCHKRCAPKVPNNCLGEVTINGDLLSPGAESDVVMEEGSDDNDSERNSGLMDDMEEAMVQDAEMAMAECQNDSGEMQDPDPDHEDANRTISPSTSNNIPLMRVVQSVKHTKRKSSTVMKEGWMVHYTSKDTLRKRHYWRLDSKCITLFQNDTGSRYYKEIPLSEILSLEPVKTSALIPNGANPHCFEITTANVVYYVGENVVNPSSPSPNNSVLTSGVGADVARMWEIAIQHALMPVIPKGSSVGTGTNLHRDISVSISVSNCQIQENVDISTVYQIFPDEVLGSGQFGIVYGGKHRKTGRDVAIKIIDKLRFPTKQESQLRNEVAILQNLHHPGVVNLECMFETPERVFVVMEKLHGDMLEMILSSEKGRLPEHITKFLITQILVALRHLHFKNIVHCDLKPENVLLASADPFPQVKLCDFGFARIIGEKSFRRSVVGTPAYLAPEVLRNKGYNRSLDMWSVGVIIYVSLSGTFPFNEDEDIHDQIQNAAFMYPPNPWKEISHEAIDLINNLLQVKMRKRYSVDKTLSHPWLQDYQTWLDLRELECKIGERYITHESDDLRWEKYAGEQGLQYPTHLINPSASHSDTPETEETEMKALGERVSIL
INS promoter inh: TRM-6 insulin promoter activity inhibition | 130,000 tested, 0.9% active | TRM-6 cells (human fetal islet line), insulin promoter-eGFP reporter, imaging; reporter expression induced with tamoxifen | inhibition, % at 2 µM;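 active = inhibition above the mean plus 3 SD, with well images judged a real hit on visual review, cut at about 60% in these data, passing the limit was not always enough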
HSV replic up: HSV replication enhancement. HSV replication augmentation in cells, fold increase. maximum fold increase. 220,000 tested, 0.005% active. AID 1956;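 active = peak rise of 1.5-fold or more in the series; tested in PC3 cells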;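 also: first round at 10 µM; read as green reporter fluorescence; hits show the peak of a series up to 25 µM; 1 = signal of infected wells without compound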
INS promoter inh cell count: recorded beside INS promoter inh, whose call it bears; normalized cell count, %; measured here: cell count, toxicity; reference of the scale not given here;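 cells exposed to compound for 48 h; stained nuclei by imaging scaled within each plate; lower means fewer cells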
HSV replic up primary fold: also measured in HSV replic up; calls as there; fold increase; compound at 10 µM; measured here: primary screen fold increase 10 uM; tested in PC3 cells;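 GFP signal in the first replicate; 1 = infected wells without compound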
The depositor's hits bear a star; i = inactive; . = not tested or not shown.

Compound	GALR2 agonist	RGS16-Gao	PKD1 inh	INS promoter inh	INS promoter inh cell count	HSV replic up	HSV replic up primary fold
O=C(C1=C[C@H](c2csc3ccccc23)C[C@H](OCCCCO)O1)N1CCN(Cc2ccc3c(c2)OCO3)CC1	.	96.9	5.8	.	.	i	0.84
COCCCn1nnnc1SCC(=O)N1CCCC1	-2.7	97.6	-1.3	8.1	66.0	i	0.99
Nc1c(C(=O)OCC(=O)Nc2ccc(Cl)cc2[N+](=O)[O-])[nH]c(=O)[nH]c1=O	.	103.7	.	.	.	i	0.86
NC(=S)N/N=C1\CC(n2nnn(-c3cccc(Cl)c3)c2=S)C2COC1O2 (stereo unspecified)	.	103.0	-0.2	-35.3	90.5	i	0.91
O=C(Nc1ccccc1Cc1ccccc1)C1CC(=O)N(c2ccc3c(c2)OCCO3)C1 (stereo unspecified)	-0.9	82.5	-5.7	-2.7	150.9	i	1.05
CCn1c(CNC(=O)COC)nc2ccccc21	-2.2	108.4	-4.0	.	.	i	0.8
Cc1ccc(OCc2nnc(SCC(=O)c3ccccc3)n2-c2ccccc2)cc1	-1.3	100.8	4.0	-37.5	110.0	i	0.85
O=C(CN1C(=O)NC2(CCCCCC2)C1=O)NCc1cccs1	-1.4	73.5	-11.2	30.8	94.9	i	0.94
O=C(c1ccc([N+](=O)[O-])cc1)N1CCC(n2nnc3cc(F)ccc32)CC1	.	102.4	-2.6	13.3	110.4	i	0.93
Cc1cc(C)c(C(N)=O)c(Nc2ccc3c(c2)OCCO3)n1	0.2	96.6	-7.2	-31.2	148.7	i	0.99
CC(C)=CCC/C(C)=C/C(N)=O	.	107.2	.	.	.	i	0.97
COc1ccc(OC)c(C(C)NC(=O)Nc2ccccc2)c1 (stereo unspecified)	.	101.3	-1.1	5.0	142.8	i	1.02
CCCOc1ccc(C(=O)CCC(=O)OCC(=O)Nc2ccc(OCC)cc2)cc1	.	103.7	.	.	.	i	1
Cc1ccc(C)c(NC(=O)CSc2nnc(CNC(=O)c3cccs3)o2)c1	.	101.7	1.0	.	.	i	0.84
CCOC(=O)C1CCN(C(=O)C2(NC(=O)NC3CCCCC3)CCCCC2)CC1	.	102.5	6.3	-53.9	78.7	i	1.05
COc1cc(C(=O)N(Cc2cc3cc(C)ccc3[nH]c2=O)CC2CCCO2)cc(OC)c1OC (stereo unspecified)	-0.7	107.3	-10.5	22.6	82.3	i	1.1
CCOC(=O)Cn1nc(/C=C/c2ccc(OC)cc2)ccc1=O	-0.8	.	-0.9	.	.	i	0.9
C/C=C(/C)C(=O)O[C@@H]1c2c(ccc3ccc(=O)oc23)O[C@@H]1C(C)(C)OC(=O)/C(C)=C\C	1.8	100.0	-10.6	-4.8	123.5	i	0.91
O=S(=O)(c1ccc(-c2nnc(SCc3ccccc3)o2)cc1)N1CCCC1	-1.3	92.8	-3.0	.	.	i	1.03
O=C(CCc1c[nH]c2ccccc12)NC1CC1	-0.2	86.9	-2.6	-18.5	103.9	i	0.97
COc1ccc(C(=O)NNC(=O)C(Cc2ccc(O)cc2)NC(=O)c2ccccc2NC(=O)c2ccc(OC)cc2)cc1 (stereo unspecified)	-1.0	105.2	-6.1	21.6	104.7	i	0.85
COCCN(Cc1cc2ccccc2[nH]c1=O)C(=O)c1ccccc1OC	-0.3	93.7	2.3	.	.	i	0.91
CCOC(=O)c1cc2c(s1)-c1ccccc1CC2	0.5	101.5	-2.9	.	.	i	1.18
CCc1nnc(NC(=O)CSc2nnc(-c3cc4ccccc4cc3O)n2CC)s1	-1.0	99.3	-0.6	-9.4	107.0	i	0.74
Cc1ccc(N2C(=O)N(C(C)C)C(C)(C)CC2(C)O)cc1 (stereo unspecified)	.	85.7	.	.	.	i	1.03
Cc1ccc(OCc2nnc(SCc3cc(=O)[nH]c4ccccc34)o2)cc1	-3.3	103.1	-6.0	.	.	i	0.74
C[C@@H]1CN(C(=O)c2nc3ccc(Cl)cn3c2CNCC[C@@H]2C[C@@H]3C=C[C@H]2C3)C[C@H](C)O1	.	100.4	5.4	.	.	i	1.02
CCOC(=O)c1cc(-c2ccccc2)n[nH]1	.	100.5	.	.	.	i	1.04
Cc1nc(NC(=O)/C=C/c2ccco2)sc1C	-0.7	101.0	-11.3	-20.0	82.8	i	1.01
COc1cccc(CNC(=O)C2=Cc3cccc(OC)c3OC2)c1	.	102.4	-7.2	0.0	117.8	i	1.01
CCOC(=O)C1CCN(C(=O)c2cccnc2Oc2ccccc2)CC1	.	104.2	.	.	.	i	0.96
CCCCCOCC(O)CCC(=O)NN (stereo unspecified)	-0.4	60.2	-2.2	.	.	i	0.983
O=C(COc1ccc2ccc(=O)oc2c1)OCc1ccccc1	.	98.9	0.8	.	.	i	0.99
Cc1nn(-c2ccc(F)cc2)c(Cl)c1/C=C/C(=O)N1CCNC(=O)C1	.	100.6	2.5	50.0	97.9	i	0.91
COc1ccc2[nH]c3nc(SCc4nnc(-c5ccc(C)cc5)o4)nnc3c2c1	-1.3	114.7	-2.6	.	.	i	0.63
CCOC(=O)/C(C#N)=C1/C=CN(C)C(C)=N1	-0.8	94.6	12.6	-100.0	36.6	i	1.06
Cc1ccc2nc(SCc3nc4ccccc4c(=O)[nH]3)[nH]c2c1	.	99.0	2.9	0.0	111.0	i	0.88
Cn1c(N)c(C(=O)COC(=O)C2(c3cccc(F)c3)CCCC2)c(=O)n(C)c1=O	-1.9	96.5	-1.1	12.5	109.5	i	0.82
Cc1ccc(-c2noc(CSc3nnc(-c4cccs4)n3C)n2)cc1	-1.4	100.1	-4.3	61.5	126.4	i	0.76
Cc1cc(C)cc(N/C(N)=N/c2nc(C)cc(C)n2)c1	-0.2	109.6	-6.5	-37.9	99.5	i	0.65

Taken from above.
Reading of Cc1nc(NC(=O)/C=C/c2ccco2)sc1C under INS promoter inh: -20.0
Reading of Cc1ccc(-c2noc(CSc3nnc(-c4cccs4)n3C)n2)cc1 under HSV replic up primary fold: 0.76
Reading of CCc1nnc(NC(=O)CSc2nnc(-c3cc4ccccc4cc3O)n2CC)s1 under RGS16-Gao: 99.3
Reading of Cn1c(N)c(C(=O)COC(=O)C2(c3cccc(F)c3)CCCC2)c(=O)n(C)c1=O under GALR2 agonist: -1.9

Later entries
Compound	GALR2 agonist	RGS16-Gao	PKD1 inh	INS promoter inh	INS promoter inh cell count	HSV replic up	HSV replic up primary fold
COc1ccc(NC(=O)C23CC4CC(C2)CC(c2ccc(C)cc2)(C4)C3)cc1	-0.6	106.7	1.6	34.7	99.0	i	1
CC(/C=C/c1ccco1)=N\NC(=O)c1cc(C)[nH]n1	-1.4	92.0	3.8	-10.7	102.2	i	1.05
CCOC(=O)C1C(=O)OC2(CCCC2)C1C(=O)OCC (stereo unspecified)	-2.3	98.2	-0.5	36.0	108.6	i	0.84
CCCCn1c(N)c(-c2nc3ccccc3s2)c2c([N+](=O)[O-])nn(CC)c(=O)c21	-2.5	104.5	-9.0	-7.7	102.9	i	1
COC(=O)c1c(C)nsc1NC(=O)Oc1ccccc1	.	104.2	-4.7	-16.7	111.1	i	1.06
Cc1ccc2[nH]c(-c3ccccc3)c(CN3CCOCC3)c(=O)c2c1	-0.7	118.8	-2.1	-6.5	190.2	i	1.01
COc1ccc(NC(=O)CCc2nc(-c3ccc(C)cc3)no2)cc1Cl	-1.9	96.7	-3.7	37.5	98.5	i	1.02
FC(F)(F)c1cccc(Cc2noc(CN3CCCCC3c3ccccn3)n2)c1 (stereo unspecified)	.	101.3	13.1	.	.	i	1.03
O=C(CSCc1cccc(Cl)c1)N/N=C/c1ccc(OCC(=O)N2CCCCC2)cc1	-0.4	105.3	-7.6	59.1	140.8	i	0.82
COc1cc(C(=O)OCc2ccc(C)cc2)cc(NC(=O)c2cccs2)c1OC	1.7	92.7	-7.4	-18.9	162.0	i	0.99
CN(C)S(=O)(=O)c1ccc(NC=O)cc1	.	96.6	-3.9	20.0	82.0	i	0.98
CC(=O)Nc1nc(C)c(Oc2ccc(Cl)cc2Cl)c(=O)[nH]1	-1.9	98.4	-14.2	-24.4	32.0	i	0.91
Cc1cc(C)n(CCNC(=O)CC2C(=O)NCCN2Cc2ccccc2C(F)(F)F)n1 (stereo unspecified)	.	101.0	-0.1	.	.	i	1.08
COc1ccc2c(c1)C(c1ccc(C)o1)=NNC(c1cccnc1)=N2	.	100.6	0.8	14.3	116.6	i	0.91
CC(C)C(=O)Nc1nnc(SCc2cccc(F)c2)s1	.	103.1	9.8	.	.	i	1.01
CN(Cc1ccon1)Cc1cn(C)nc1-c1ccc2c(c1)OCCO2	.	97.8	4.2	.	.	.	.
Cc1ccc(N2C(=O)CC(Sc3ncccc3C(=O)O)C2=O)cc1 (stereo unspecified)	.	100.2	9.7	44.2	119.3	i	0.89
CNC(=O)COC(=O)c1ccc(NC(=O)CC#N)cc1	-0.1	78.4	-4.1	-5.4	66.5	i	1.04
CC1(C)CC(=O)C2=C(C1)N(Cc1ccco1)C(=O)C2(NC(=O)c1cccnc1)C(F)(F)F (stereo unspecified)	-0.2	98.2	-7.3	38.5	50.0	i	0.88
CCc1ccc(OCCCC(=O)NCc2ccccc2)cc1	-1.7	110.3	-10.7	16.7	117.2	i	0.91

Profiles from above. Order of screens: GALR2 agonist	RGS16-Gao	PKD1 inh	INS promoter inh	INS promoter inh cell count	HSV replic up	HSV replic up primary fold
CCCCCOCC(O)CCC(=O)NN (stereo unspecified) reads -0.4	60.2	-2.2	.	.	i	0.983
COC(=O)c1c(C)nsc1NC(=O)Oc1ccccc1 reads .	104.2	-4.7	-16.7	111.1	i	1.06

New compounds follow:
Compound	GALR2 agonist	RGS16-Gao	PKD1 inh	INS promoter inh	INS promoter inh cell count	HSV replic up	HSV replic up primary fold
CCCC(=O)NNC(=O)CCC(=O)Nc1ccccc1Cl	.	142.8	1.1	33.3	81.7	i	1.05
OCCCNC(=S)NC1CCCC1	.	99.9	5.2	-470.6	13.6	i	0.92
COc1ccc(N2CCN(C(=O)CSc3nnc(-c4cc5ccccc5cc4O)n3C)CC2)cc1	-1.0	98.3	-10.5	-48.5	87.6	i	0.9
Cc1cc(=O)[nH]c2cc(O)ccc12	-1.6	98.0	-10.4	15.8	120.5	i	0.82
CCCOc1c(Br)cc(/C=N/O)cc1OC	-1.0	112.5	-3.5	0.0	79.9	i	1.07
Cc1ccc(CN2C(=O)N/C(=C/c3ccc(-c4ccc(C(=O)O)cc4)o3)C2=O)cc1	.	100.1	.	.	.	i	1.04
CCN1CCN(CC(=O)Nc2cc(C)c(C)cc2[N+](=O)[O-])CC1	0.2	100.1	-6.7	.	.	i	0.9
Cc1noc(C)c1C(=O)OCC(=O)c1ccc[nH]1	-2.2	99.6	-5.5	.	.	i	1
CC(C)Oc1ccc(CN=C(N)N=C(N)N)cc1Cl	-1.6	101.2	-12.1	.	.	i	0.85
Cc1nn(C)c(Cl)c1CN1CCN(CCC(C)C)C(CCO)C1 (stereo unspecified)	.	96.7	.	.	.	i	0.88
COc1ccccc1Oc1ccc2c(c1)C(=O)N(c1ccccc1)C2=O	-0.3	99.3	-0.1	25.0	82.8	i	0.86
COc1ccc(NC(=O)c2ccc(COCC(F)(F)F)cc2)cc1OC	-3.0	167.5	-6.2	-25.9	82.8	i	0.97
COCCOC(=O)C1=C(C)NC2=C(C(=O)CC(C)(C)C2)C1c1cccnc1 (stereo unspecified)	2.2	96.2	4.3	3.0	93.0	i	0.86
Cc1ccc(NCc2nnc3n2CCCCC3)c(C)c1	.	100.7	-5.6	.	.	i	1.06

Compound activity as filed in PubChem.

An unsorted share of the library; any-hit rate near 1.1%.
